Bioassay records as filed in PubChem BioAssay.
KCNQ2 inh: KCNQ2 channel blockers in CHO-K1 cells – cell-based, FluxOR thallium flux, B-score, primary screen (AID 2156) | O88943 | 1.1% of 310,000 active | 20 min; hits give low values; only compounds with negative scores are shown here; some inactives read as strong as hits | B-score at 10 µM;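 active = fluorescence ratio B-score at most minus 3 library SDs, with starting brightness B-score within 2 library SDs, cut at about -5.5 in these data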
Target sequence (O88943 whole entry, looked up): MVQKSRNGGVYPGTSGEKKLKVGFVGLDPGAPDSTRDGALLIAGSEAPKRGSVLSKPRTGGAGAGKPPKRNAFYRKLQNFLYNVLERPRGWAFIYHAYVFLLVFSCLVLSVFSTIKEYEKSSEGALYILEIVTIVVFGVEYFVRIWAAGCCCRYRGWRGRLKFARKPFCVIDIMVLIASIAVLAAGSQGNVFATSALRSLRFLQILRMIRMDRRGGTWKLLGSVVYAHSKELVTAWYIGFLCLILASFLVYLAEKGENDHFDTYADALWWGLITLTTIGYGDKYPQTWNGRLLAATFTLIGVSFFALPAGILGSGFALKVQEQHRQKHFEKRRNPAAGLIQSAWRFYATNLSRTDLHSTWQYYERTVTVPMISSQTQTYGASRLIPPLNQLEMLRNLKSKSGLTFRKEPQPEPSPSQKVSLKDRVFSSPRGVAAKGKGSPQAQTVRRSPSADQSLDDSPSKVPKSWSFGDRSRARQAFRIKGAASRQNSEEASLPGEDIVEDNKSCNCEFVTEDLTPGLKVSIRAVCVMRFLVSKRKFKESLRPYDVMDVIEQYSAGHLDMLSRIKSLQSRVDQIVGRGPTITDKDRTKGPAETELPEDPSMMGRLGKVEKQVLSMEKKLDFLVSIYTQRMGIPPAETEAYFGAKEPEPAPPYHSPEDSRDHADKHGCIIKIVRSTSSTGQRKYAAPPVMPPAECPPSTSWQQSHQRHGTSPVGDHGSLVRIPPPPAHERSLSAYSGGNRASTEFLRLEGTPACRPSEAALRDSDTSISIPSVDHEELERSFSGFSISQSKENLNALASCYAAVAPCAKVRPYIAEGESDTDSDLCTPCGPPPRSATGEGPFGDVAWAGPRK
KCNQ2 inh baseline: recorded beside KCNQ2 inh, whose call it bears; B-score; measured here: initial fluorescence intensity artifact check;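 brightness before thallium and not channel activity; 0 = typical well and far values either way flag optical interference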
* marks the source's active call; other numbers are inactive results; i = inactive. A portion of the library (hit frequency here may not be typical).

SMILES	KCNQ2 inh	KCNQ2 inh baseline
O=c1c2ccccc2nc(N2CCN(c3ccccc3)CC2)n1Cc1ccccc1	i	0.54
COc1cc(OC)c(NS(=O)(=O)c2cc(C(=O)OCC(=O)NCC3CCCO3)ccc2OC)cc1Cl (configuration not stated)	i	-0.81
Cc1ccc(S(=O)(=O)/N=c2\ccc(Cl)cn2C(F)F)cc1	i	1.65
Cc1sc2ncnc(NCC3COc4ccccc4O3)c2c1C (configuration not stated)	i	0.39
CCC(CC)C(=O)Oc1c(Sc2ccccc2[N+](=O)[O-])c(C)nn1C(C)(C)C	-6.01*	-0.6*
CC(C)(C)OC(=O)N1CCC[C@H]1c1nnc(SCc2ccc(Cl)cc2)o1	i	-0.15
COc1cc(/C=N/NC(=S)Nc2cccnc2)cc(OC)c1OC	i	0.92
N#CC(c1ccccc1F)(c1ncc(C(F)(F)F)cc1Cl)N1CCOCC1 (configuration not stated)	i	-1.34
Cc1ccc(N(CC(=O)N2CCCCC2)S(=O)(=O)c2ccc(C)cc2)cc1	i	1.47
CC(C)(C)c1ccc(OCCON2C(=O)CCC2=O)c(Cl)c1	i	-0.05
c1ccc2c(NC3=NCCCCS3)cccc2c1	i	0.3
C=CCn1c(=O)c(C(=O)NCc2ccc3c(c2)OCO3)c(O)c2ccccc21	i	-0.3
O=C(NCC1CCCCC1)c1cccc([N+](=O)[O-])c1	i	0.12
CC(=O)Nc1cccc(NC(=O)c2cc(-c3cccnc3)nc3ccc(Cl)cc23)c1	i	-1.1
COc1ccc(NC(=O)c2ccc(-c3ccccc3)cc2)cc1NS(=O)(=O)c1ccc(F)cc1	i	0.87
COc1ccc(S(=O)(=O)Nc2cc3[nH]c(=O)oc3cc2C)cc1	i	1.43
Clc1ccc(C2Nc3ccccc3-n3cccc32)cc1 (configuration not stated)	i	0.76
O=C(O)CN1C(=O)/C(=C/c2ccccc2Cl)Oc2ccccc21	i	0.63
CS(=O)(=O)c1ccc(NCCc2ccccn2)c([N+](=O)[O-])c1	i	0.11
Cc1[nH]c2ccccc2c1C(=O)CN1C(=O)NC(C)(c2ccc(Cl)cc2Cl)C1=O (configuration not stated)	i	-1.1
Cc1ccc2c(c1)CCCN2S(=O)(=O)c1cccc(C(=O)Nc2ccccc2C(=O)O)c1	i	-0.01
CC1=C/C(=C\C=C(C#N)C#N)N(C)c2ccccc21	i	2.29
CCc1c(C)c2c(C)nn(-c3ccccc3)c2[nH]c1=O	i	0.93
CCOC(=O)C1CCCN(C2CC(=O)N(c3ccc(NC(C)=O)cc3)C2=O)C1 (configuration not stated)	i	0.31
CC(=O)NS(=O)(=O)c1ccc(NC(=S)Nc2ccccc2)cc1	i	-0.04

Next part.
SMILES	KCNQ2 inh	KCNQ2 inh baseline
CC1CC(=O)N(CC(=O)NCc2ccc(F)cc2)c2ccccc2S1(=O)=O (configuration not stated)	i	0.5
O=C(NCc1ccccn1)c1ccc(Cn2c(=S)[nH]c3ccccc3c2=O)cc1	i	-0.03
CC1CCC(NC(=O)c2cnccn2)CC1 (configuration not stated)	i	0.13
CCOC(=O)[C@@H]1[C@H]2COc3ccccc3[C@H]2N2C(=O)N(c3cccc(Cl)c3)C(=O)[C@@]12C	i	1.65
CCOc1ncccc1C(=O)OCC(=O)Nc1nnc(-c2ccccc2)o1	i	0.12
O=C(O)/C(=C\c1ccc(Cl)c([N+](=O)[O-])c1)c1ccc(S(=O)(=O)N2CCCCC2)s1	i	0.41
Cc1c(NC(=O)c2ccc3c(c2)OCO3)c(=O)n(-c2ccccc2)n1C	i	-0.78
CC(OC(=O)CNC(=O)c1ccccc1F)C(=O)Nc1nc(-c2ccccc2)cs1 (configuration not stated)	i	-1.15
COc1cc([N+](=O)[O-])cc2cc(C(=O)N3CCCC3)c(=O)oc12	i	0.25
Cc1ccc(/C=C/C(=O)N2CCN(c3ccc(F)cc3)CC2)o1	i	-0.39
CC1CC(C)CN(CCOc2ccc(Cl)cc2Cl)C1 (configuration not stated)	i	0.2
Cc1ccc(S(=O)(=O)c2c(C)nn(C(C)(C)C)c2OC(=O)C2CCCC2)cc1	i	0.18
Cc1ccccc1-n1c(=O)cc(N2CCN(Cc3ccccc3)CC2)[nH]c1=O	i	-0.33
CCC(=O)NC(=S)Nc1ccc(Cl)cn1	i	-0.04
N#Cc1cccc(NC(=O)CCNS(=O)(=O)c2ccc3[nH]c(=O)oc3c2)c1	i	1.27
COc1ccc(-n2nnnc2SCC#CCO)cc1	i	-1.41
CSc1ccccc1NC(=O)CSCc1ccc(C)cc1	i	-0.47
C=CCN(C(=O)c1csnn1)C(C(=O)NCc1ccccc1)c1cccs1 (configuration not stated)	i	-1.31
O=C(NCc1ccco1)c1ccc(Cn2c(=O)c3ccccc3n(Cc3ccc(Cl)cc3)c2=O)cc1	-6.53*	-2.06*
Cc1ccc(C(=O)N2CCCCCC2)cc1Br	i	0.23
Cc1ccc(C(C(=O)NC(C)(C)C)N(C(=O)c2csnn2)C2CC2)cc1 (configuration not stated)	i	0.36
O=c1c2ccccc2c(/C=N/n2cnnc2)c(O)n1-c1ccccc1F	i	2.85
CN(C)S(=O)(=O)N1CCN(c2ccccc2)CC1	i	-0.08
CCn1c(NCc2cc(OC)c(OC)c(OC)c2)nc2ccccc21	i	1.6
Fc1ccc(C2=NN(c3ccccc3)C(c3ccco3)C2)cc1 (configuration not stated)	i	0.36

At a glance, part of the list above:
SMILES	KCNQ2 inh	KCNQ2 inh baseline
CC1CC(=O)N(CC(=O)NCc2ccc(F)cc2)c2ccccc2S1(=O)=O (configuration not stated)	i	0.5
O=C(NCc1ccccn1)c1ccc(Cn2c(=S)[nH]c3ccccc3c2=O)cc1	i	-0.03
CC1CCC(NC(=O)c2cnccn2)CC1 (configuration not stated)	i	0.13
CCOC(=O)[C@@H]1[C@H]2COc3ccccc3[C@H]2N2C(=O)N(c3cccc(Cl)c3)C(=O)[C@@]12C	i	1.65
CCOc1ncccc1C(=O)OCC(=O)Nc1nnc(-c2ccccc2)o1	i	0.12
O=C(O)/C(=C\c1ccc(Cl)c([N+](=O)[O-])c1)c1ccc(S(=O)(=O)N2CCCCC2)s1	i	0.41
Cc1c(NC(=O)c2ccc3c(c2)OCO3)c(=O)n(-c2ccccc2)n1C	i	-0.78

Further compounds
SMILES	KCNQ2 inh	KCNQ2 inh baseline
Cc1cccc(C(=O)NC(NC(=S)Nc2ccc(S(N)(=O)=O)cc2)C(Cl)(Cl)Cl)c1 (configuration not stated)	i	-0.46
CCS(=O)(=O)N1CCN(C(=O)c2cccnc2)CC1	i	-0.16
Cc1ccc(-c2nnc(N3CCN(C(=O)COc4ccccc4)CC3)c3ccccc23)cc1	-7.64*	-0.08*
CN(CC(=O)Nc1cccc(F)c1)C(=O)c1ccc(COc2ccccc2)o1	i	0.04
Cc1ccc(SC2=C(Sc3ccc(C)cc3)C(=O)c3ccccc3C2=O)cc1	i	-2.01
CCOc1cc2c(cc1OCC)C(c1ccc(OC)cc1)N(c1ccccc1)C(=O)C2 (configuration not stated)	i	-0.12
O=C(COc1ccc(/C=N/NC(=O)c2ccccc2O)cc1)Nc1ccccc1	i	-0.14
Cc1occc1C(=O)NNC(=O)COc1ccc(Br)cc1Br	i	0.49
O=C(Cn1c2c(c(-c3ccccc3Cl)cc1=O)CCC2)NCC1CCCO1 (configuration not stated)	i	2.85
CC1CCCCC1NC(=O)C1CC(=O)N(Cc2ccccc2)C1 (configuration not stated)	i	1.9
NC(=O)COc1cc2oc(=O)c3c(c2cc1Cl)CCCC3	i	-0.04
O=C(O)C1C2CCC(O2)C1C(=O)Nc1ccccc1Br (configuration not stated)	i	-0.12
CCO[C@H]1OC(C(=O)N2CCN(Cc3ccc4c(c3)OCO4)CC2)=C[C@@H](c2cn(C(C)=O)c3ccccc23)[C@@H]1CCCO	i	-0.53
Cc1csc(SCc2nnc(-c3ccccc3Br)o2)n1	i	0.08
O=C(CCC(=O)N1CCOc2ccc(Cl)cc21)NCCCN1CCOCC1	i	-0.12
CC(C)(C)NC(=O)NC(=O)CSc1cccc(C(F)(F)F)c1	i	-0.04
COc1ccccc1NC(=O)CSc1nnc(-c2ccoc2C)n1CCc1ccccc1	-8.21*	-1.92*
COc1ccc(N2CCN(C(=O)Cc3ccc(Br)cc3)CC2)cc1	i	1
COC(=O)c1c(C)oc(C)c1S(=O)(=O)NC(c1ccccc1)c1ccccc1	i	0.02
Cc1ccccc1Nc1nc(N)nc(CN(C)c2ccccc2)n1	i	-0.58
O=C(O)CCSCCC(=O)O	i	1.65
CCOC(=O)CNc1ncc([N+](=O)[O-])cc1C#N	i	-0.02
CSc1cccc(NC(=S)N2CCCN(Cc3ccccc3F)C2)c1	i	-0.72
Cc1ccc(-c2cc3c(N=O)c4ccccc4c-3n[nH]2)cc1	i	0.02
O=c1c2ccccc2n(Cc2ccccc2F)c(=O)n1Cc1ccccc1F	i	2.21

Seven entries drawn at random from the list so far:
SMILES	KCNQ2 inh	KCNQ2 inh baseline
COc1ccc(N2CCN(C(=O)Cc3ccc(Br)cc3)CC2)cc1	i	1
CC1CCCCC1NC(=O)C1CC(=O)N(Cc2ccccc2)C1 (configuration not stated)	i	1.9
O=C(COc1ccc(/C=N/NC(=O)c2ccccc2O)cc1)Nc1ccccc1	i	-0.14
CCS(=O)(=O)N1CCN(C(=O)c2cccnc2)CC1	i	-0.16
O=C(Cn1c2c(c(-c3ccccc3Cl)cc1=O)CCC2)NCC1CCCO1 (configuration not stated)	i	2.85
O=C(O)CCSCCC(=O)O	i	1.65
Cc1occc1C(=O)NNC(=O)COc1ccc(Br)cc1Br	i	0.49

Continuation:
SMILES	KCNQ2 inh	KCNQ2 inh baseline
CC1(NC(=S)NCCCCCCNC(=S)NC2(C)CCS(=O)(=O)C2)CCS(=O)(=O)C1 (configuration not stated)	i	-1.24
O=C(CSc1nncn1-c1ccccn1)Nc1ccccc1Cl	i	-0.33
CS(=O)(=O)N1CCN(c2ccc(C(=O)NC34CC5CC(CC(C5)C3)C4)cc2[N+](=O)[O-])CC1	i	-1.41
CCOC(=O)c1c(C)c(C(=O)NCCOC)c(C)n1CC	i	-1.04
CCCC(=O)Nc1nc(-c2ccccc2)c(CC)s1	i	-0.03
Cc1ccc(N2CCN(/N=C/C(Cl)=C/c3ccccc3)CC2)cc1	i	-0.49
CC1(c2cnc(Nc3ccccc3)s2)CCC(=O)O1 (configuration not stated)	i	0.96
CC(Oc1ccc(F)cc1)C(=O)Nc1cc(S(=O)(=O)N2CCOCC2)ccc1N1CCCCC1 (configuration not stated)	-8.14*	-0.05*
Cc1ccc(C)c(Oc2nnnn2-c2ccccc2)c1	i	1.29
CCCS(=O)(=O)n1nc(-c2ccc(Br)cc2)cc1N	i	-1.04
Cc1ccc(-n2cc(CNC(C)Cn3cncn3)c(-c3ccc(F)cc3)n2)cc1 (configuration not stated)	i	-1.86
Clc1cccc(Cl)c1-c1noc(CN2CCOCC2)n1	i	-0.53
CCCOC(=O)CC1C(=O)NCCN1Cc1ccccc1C (configuration not stated)	i	-0.45
CN(C)c1nc(Oc2ccc(=O)n(-c3ccccc3)n2)nc(N2CCOCC2)n1	i	-0.44
CC1CCN(CCCNC(=O)c2ccc3c(=O)n(Cc4ccc(Cl)cc4)c(=S)[nH]c3c2)CC1	-5.88*	-0.84*
N=C(c1cccc([N+](=O)[O-])c1)N1CCCCCC1	i	-0.28
CC(Sc1nnc(CNc2cccc3ccccc23)n1-c1ccccc1)C(=O)N/N=C/c1ccco1 (configuration not stated)	i	-1.02
O=c1ccc(-c2ccccc2)no1	i	1.07
O=C(C1CC(=O)N(c2ccc(F)cc2)C1)N1CCC(c2nc3ccccc3[nH]2)CC1 (configuration not stated)	i	0.72
COC(=O)Nc1ccc(S(=O)(=O)N2CCCC(C(=O)Nc3cccnc3)C2)cc1 (configuration not stated)	i	0.79
COc1ccc(/C=C/CN2CCCC(CCC(=O)NCc3ccc(F)c(F)c3)C2)cc1 (configuration not stated)	i	-1.43
COC(=O)C1SCCN1S(=O)(=O)c1ccc(Cl)cc1 (configuration not stated)	i	-0.96
O=C(c1ccccc1)C(CCC(CN1CCOCC1)C(=O)c1ccccc1)CN1CCOCC1 (configuration not stated)	i	1.11
CC(C)(C)n1nnnc1C(c1ccc2ncccc2c1)N1CCC(O)CC1 (configuration not stated)	i	1.51
O=C(NCCN1CCOCC1)c1ccc(Cl)c(S(=O)(=O)N2CCCCCC2)c1	i	1.62

Look-ups from the results shown.
CCCOC(=O)CC1C(=O)NCCN1Cc1ccccc1C (configuration not stated) | KCNQ2 inh baseline: -0.45
O=C(c1ccccc1)C(CCC(CN1CCOCC1)C(=O)c1ccccc1)CN1CCOCC1 (configuration not stated) | KCNQ2 inh baseline: 1.11

Further results follow.
SMILES	KCNQ2 inh	KCNQ2 inh baseline
CCOc1cc(N2CCOCC2)c(OCC)cc1NC(=O)c1cc(C)cc(C)c1	i	2.61
Cc1ccc(NC(=O)C2CCN(C(=O)NC3CCCCC3)CC2)c(C)c1	i	0.11
Cc1cc(-c2ccccc2C(=O)Nc2ccccc2O)on1	i	1.11
O=C(c1c(F)cccc1F)N1CCCC(c2nc(-c3ccc(Cl)cc3)no2)C1 (configuration not stated)	i	-0.7
O=C(Nc1ccc(-c2ccco2)cc1)C1CCCN(Cc2ccc(CO)o2)C1 (configuration not stated)	i	-1.87
O=c1c2cc(NC(=S)N3CCC(N4CCCCC4)CC3)ccc2nc2n1CCCCC2	i	0.26
O=C1C(=O)N(c2ccccn2)C(c2ccc(Br)cc2)/C1=C(/O)c1ccc(Br)cc1 (configuration not stated)	i	0.01
O=C(Cc1cn(-c2ccccc2)nc1-c1ccccc1)N1CCCCC1	i	0.12
CCOCCn1c(CN2CCN(CCO)CC2)nc2c1c(=O)n(C)c(=O)n2C	i	0.02
COc1cccc(CNC(=O)COc2cc(O)c3c(c2)OC(C)(C)CC3=O)c1	i	-0.08
O=C(CCCn1ncn2c(cc3occc32)c1=O)NCc1ccccc1F	i	-1.69
COCc1ccc(CN2CCC(C(=O)Nc3cccc(-c4cccc(Cl)c4)c3)CC2)o1	i	-0.41
COc1ccc(CC(=O)NCc2ccc3c(c2)cc(C)n3C)cc1OC	i	0.58
COc1ccc(CCSc2nnc(C3CCCCC3)n2N)cc1	i	-0.1
COc1cccc(C(=O)NNC(=S)NC2CCCCC2)c1	i	0.82
Cc1ccc(N(C)C(=O)N2CCN(S(=O)(=O)c3ccc4ccccc4c3)CC2)cc1	i	-0.41
